# Source: PubChem
# Ba CapD inh = blocks the Bacillus anthracis CapD enzyme | AID 492967 | z-score (test concentration not listed) | purified CapD enzyme, fluorescence intensity read-out; active compounds read low; some hits fall short of the stated cut | 140,000 compounds, 0.23% hits;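 active = z-score under -4 in either of two replicates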;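 note: stock transfer was 100 nL into about 40 µL; score is relative to mean and spread of the plate; one replicate is shown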
# AID504770 = E. coli YBA685 growth inhibition, screen for V. cholerae RctB inhibitors; E. coli YBA685 rctB-dependent plasmid, OD600 growth, 3 h; active compounds read low; AID 504770; z-score (test concentration not listed); 130,000 compounds, 0.27% hits;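 active = z-score under -2 on both plates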;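 note: wells of about 30 µL received 100 nL stock; score is relative to mean and SD of the test wells; the first replicate is given; strong numbers were not always called active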
# * = called active by the depositor; x = no result given; & = joins results of further samples. Not all compounds are listed. The share of hits here may be higher or lower than overall.
SMILES,Ba CapD inh,AID504770
CC(=O)Nc1ccc(C(=O)c2ccccc2)cc1,-0.14,-0.55
Cc1c(N=C2c3ccccc3-c3ccccc32)c(=O)n(-c2ccccc2)n1C,-1.1,-0.8
NC(=O)c1ccc2c(c1)C1C3CCC(C3)C1C(c1ccccc1)N2 (centres undefined),8.2,0.95
Cc1ccc(OC(=O)c2sc3nc(C(F)(F)F)nn3c2C)cc1,0.14,-0.65
O=C(CC1Sc2ccccc2NC1=O)N/N=C/c1csc([N+](=O)[O-])c1 (centres undefined),-0.065,x
CCN1CCN(C(=O)c2ccc(NC(C)=O)cc2)CC1,0.45,-0.9
O=C(Nc1ccccc1C(=O)Nc1ccc(Cl)cc1)c1ccccc1,0.55,x
O=c1n(CCCN2CCN(c3cccc(Cl)c3)CC2)nc2ccccn12,-0.31&-0.46,0
CCCCc1c(C)nc(N)[nH]c1=O,0.43,1.5
Cc1cccn2c(=O)c3cc(C(=O)NCC4CCCO4)c(=N)n(C4CCCCC4)c3nc12 (centres undefined),2.7,-0.7

# The last 3 compounds of the section before open the next one:
SMILES,Ba CapD inh,AID504770
O=c1n(CCCN2CCN(c3cccc(Cl)c3)CC2)nc2ccccn12,-0.31&-0.46,0
CCCCc1c(C)nc(N)[nH]c1=O,0.43,1.5
Cc1cccn2c(=O)c3cc(C(=O)NCC4CCCO4)c(=N)n(C4CCCCC4)c3nc12 (centres undefined),2.7,-0.7
CN(C)c1ccc(NC(=O)/C=C/c2ccccc2)cc1,-0.74,-0.75
COc1cccc(NC(=O)c2cn(C3CCCC3)c(=O)c3c2c2ccccc2n3C)c1,7.7,1.1
CCOC(=O)c1cc(C(=O)OCC)c(C(F)(F)F)nc1/C=C/N(C)C,-2.1,0
COC(=O)c1cccc(NC(C)=O)c1,0.77,-0.1
CCOC(=O)c1cnn2c(C)cc(-c3ccc(F)cc3)nc12,58,-0.45
CCN1C(=O)C(=Cc2cccn2-c2ccc(N(C)C)cc2)C(=O)N(CC)C1=S,0.21,-0.3
COC(=O)c1ccc(N2CCN(C)CC2)c(NC(C)=O)c1,-0.73,0
COc1ccc(NS(=O)(=O)c2coc(C(N)=O)c2)cc1,0.3,1.1
CN(C)CCNc1cn[nH]c(=O)c1Cl,0.08,-0.65
COc1cc(OC)nc(Oc2ccccc2-c2noc(C)n2)n1,-0.72,x
CCCN1CSC(=S)N(CCC)C1,-0.44,-1
CCc1n[nH]c(=S)n1/N=C1\C(=O)N(C)c2ccccc21,x,-0.4
Cc1nnc(SCc2cccc(C(=O)Nc3ccc(I)cc3C)c2)s1,-0.11,x
COc1ccc(C(=O)c2c(/C=C/N(C)C)oc3ccc(OC)cc23)cc1,-2.3,2.2
Cc1n[nH]c(C)c1C(C)C(=O)Nc1ccc(CN2CCOCC2)cc1 (centres undefined),0.09,0.3
CCN1CN=C(SCc2ccc(Cl)cc2)NC1,-0.06,x
COc1ccc(OC)c2sc(NC(=O)/C=C/c3cccs3)nc12,x,0.45
Cc1ccc(C(=O)Oc2c(C)cc(-c3nn(C)c(=O)c4ccccc34)cc2C)cc1,-0.015,-0.55
COC(=O)c1cccc2c(Br)ccc(C(=O)OC)c12,-0.7,-1
COc1ccc(NC(=O)Nc2ccc(I)cn2)cc1,0.19,x
O=C(/C=C/c1ccc2c(c1)OCO2)N/N=C/c1cccc(O)c1,7.3,x
CS(=O)(=O)c1ccc(CN(Cc2cccc(C(F)(F)F)c2)C(=O)C(c2ccccc2)c2ccccc2)cc1,-0.29,x
O=[N+]([O-])/C=C/c1ccsc1,-3.8,x
Cn1c(SCC(=O)NC(C)(C)C)nc2cccnc21,x,-0.55
CC1CCc2nc3ccccc3c(C(=O)O)c2C1 (centres undefined),-0.01,2.1
COc1ccccc1NC1=NCC(C)S1 (centres undefined),0.31,-0.35
CC1CCCCC1NC(=O)Cn1cc2c(n1)CCCCC2 (centres undefined),-0.51,1.7
N#CC1=C([S-])N[C@@](O)(c2ccccc2)[C@H]([n+]2cccc3cc(Cl)ccc32)[C@H]1c1cccnc1,-0.045,x
CCOc1ccc(CNC(=O)C2CCCN(S(=O)(=O)N3CCOCC3)C2)cc1 (centres undefined),-0.39,1.8
Cc1ccc2c(CC(=O)NCCc3ccc(S(N)(=O)=O)cc3)coc2c1,x,-0.15
O=C(CN1CCCC1)N/N=C/c1ccc(-c2cccc(Cl)c2Cl)o1,x,0.4
Cc1cc(C)cc(OCC(O)CNC(C)(C)C)c1 (centres undefined),0.71,1.1
Cc1cc(C(=O)COC(=O)/C=C/c2ccc3c(c2)OCO3)c(C)n1C1CC1,x,0.05
O=c1/c(=C\c2ccc(Br)cc2)sc2n1C(c1ccccc1)C(c1ccccc1)=NN=2 (centres undefined),-0.27,x
COc1ccc(C2=NN(S(=O)(=O)c3ccccc3)C(c3cccc(OC)c3OC)C2)cc1OC (centres undefined),0.11,x
CCN(CC)S(=O)(=O)c1cccc(-c2nnc(C(=O)c3ccc(C(F)(F)F)cc3)o2)c1,x,-0.1
COc1ccc(C(=O)Oc2ccccc2NC2=NS(=O)(=O)c3ccccc32)cc1OC,-0.6,x
O=C(Nc1nccs1)C12CC3CC(C1)CC(C(=O)Nc1nccs1)(C3)C2,-1.5,-0.55
CN(C)S(=O)(=O)c1ccc(/C(O)=C2\C(=O)C(=O)N(Cc3cccnc3)C2c2cccnc2)cc1 (centres undefined),x,1.2
CCOC(=O)C1=C(C)Nc2ccccc2N=C1N,x,0.9

# Six structures from above, sorted by SMILES length, largest number first.
SMILES,Ba CapD inh,AID504770
CCN(CC)S(=O)(=O)c1cccc(-c2nnc(C(=O)c3ccc(C(F)(F)F)cc3)o2)c1,x,-0.1
COc1ccc(C2=NN(S(=O)(=O)c3ccccc3)C(c3cccc(OC)c3OC)C2)cc1OC (centres undefined),0.11,x
O=c1/c(=C\c2ccc(Br)cc2)sc2n1C(c1ccccc1)C(c1ccccc1)=NN=2 (centres undefined),-0.27,x
O=C(CN1CCCC1)N/N=C/c1ccc(-c2cccc(Cl)c2Cl)o1,x,0.4
Cc1cc(C)cc(OCC(O)CNC(C)(C)C)c1 (centres undefined),0.71,1.1
CCOC(=O)C1=C(C)Nc2ccccc2N=C1N,x,0.9

# Two entries from above, set out differently.
SMILES | Ba CapD inh | AID504770
O=C(CN1CCCC1)N/N=C/c1ccc(-c2cccc(Cl)c2Cl)o1 | x | 0.4
O=[N+]([O-])/C=C/c1ccsc1 | -3.8 | x

# The list goes on.
SMILES,Ba CapD inh,AID504770
CC(C)(C)CC(C)(C)N=C1NS(=O)(=O)c2ccccc21,x,-0.7
CCOC(=O)C1=C(C)N=c2s/c(=C\c3ccc(O)cc3)c(=O)n2C1c1ccc(OCC)c(OCC)c1 (centres undefined),0.13,x
COC(=O)c1c(C)oc2ccc(NS(=O)(=O)c3ccc(OC)cc3)cc12,x,-0.55
CC(C)n1c(=S)[nH]c2ccccc2c1=O,2.2,-0.4
O=C(O)CNc1nc(C(F)(F)F)nc2c1cnn2Cc1ccccc1,x,1.1
O=C(OCCN1CCN(CCCN2c3ccccc3Sc3ccc(C(F)(F)F)cc32)CC1)N1CCN(c2ccc(C(F)(F)F)cc2)CC1,0.31,x
CCOC(=O)c1oc2ccccc2c1CSc1ccccn1,-0.18,-0.95
Cc1coc(=O)n1-c1ccc(Cl)cc1Cl,-0.09,0.3
Cc1ccc(S(=O)(=O)Cc2c(Cl)cccc2Cl)cc1,-0.035,x
CCOC(=O)c1nnn(-c2nonc2N)c1CN1CCN(C(c2ccccc2)c2ccccc2)CC1,-0.45,x
O=C1C(=O)N(c2nccs2)C(c2ccc(F)cc2)/C1=C(\O)c1ccc([N+](=O)[O-])cc1 (centres undefined),-0.33,x
O=c1[nH]c(-c2cccs2)nc2ccccc12,0.14&0.93,-0.75&0.55
COc1cccc2c1oc(=O)c1c(N)nc3c(c12)CCCC3,7.2,x
COc1cccc(NC(=O)CSc2nc3c(sc(=S)n3-c3ccccc3)c(=O)[nH]2)c1,-1,x
CC(=O)N1c2ccccc2CCc2ccc([N+](=O)[O-])cc21,-0.28,x
c1cncc(-c2ncc(-c3ccncc3)c(-c3ccncc3)n2)c1,-0.42,x
COc1ccc2nc(NC(=O)c3cccnc3)sc2c1,0.22,0.85
CCc1nc2c(=O)[nH]c3ccccc3c2o1,-0.65,0
COCC(C)NC(=O)c1cc2cc(OC)ccc2[nH]1 (centres undefined),99,-0.55
Cc1cc(C)c(NC(N)=S)c(C)c1,-0.11,x
CCOC(=O)c1sc(SCc2ccccc2)c2c1CC(C)(C)CC2=O,-0.74,x
COc1ccc(-c2noc(CNC(=O)C3CCCCC3)n2)cc1,-0.15,-0.2
O=C(COC(=O)c1cc2cc(Br)cc(Br)c2oc1=O)c1cccs1,-0.56,1.8
CNC(=O)Oc1ccc2sc(=O)oc2c1,0.01,-1.6
CCn1c(SCC(=O)C23CC4CC(CC(C4)C2)C3)nnc1-c1ccco1,x,-0.45
COCCOC(=O)C1=C(C)N(Cc2ccccc2)C(=O)NC1c1ccc(OCc2ccccc2)cc1 (centres undefined),-0.77,x
C=C1SC(Nc2cc(Cl)c(Cl)cc2Cl)=NC1(C)C,-0.49,x
c1ccc(N=P(N2CCOCC2)(N2CCOCC2)N2CCOCC2)cc1,x,-0.5
CCNc1nc(-c2ccccc2)no1,0.46,0.1
CCOC(=O)c1c(NC(=O)Cn2cnc([N+](=O)[O-])n2)sc2c1CCC(C)C2 (centres undefined),-0.56,x
C=CCn1cc(/C=C(/C#N)C(=O)OCC)c2ccccc21,x,0.45
CCOC(=O)c1c(C)oc2c1c(C(c1cccnc1)N1CCOCC1)c(O)c1ccccc12 (centres undefined),0.085,0.15
CSc1nnc(CCCc2nnc(SC)o2)o1,-0.29,0.45
FC(F)(F)c1cccc(-c2[nH]ncc2-c2nc3ccccc3o2)c1,1.2,x
CCOC(=O)c1cc2c(c(CSc3nc4ccccc4c(=O)n3CCc3ccc(S(N)(=O)=O)cc3)c1)OCOC2,0.12,x
O=C(O)Cn1ccc(C(F)(F)F)n1,x,-0.55
CC(C)NS(=O)(=O)c1ccc(OCC(=O)O)c(Cl)c1,0.045,0.35
O=C(Nc1ccccc1)N1CCn2c(nc3ccccc32)C1,58,-0.65
O=C(c1ccccc1)c1cccc(NC(=O)c2c(F)cccc2Cl)c1,0.72,x
COC(=O)C1C(=O)NC(SCC(=O)Nc2ccccc2C)=C(C#N)C1c1ccc(Cl)cc1Cl (centres undefined),-0.42,x
NCCCn1c2c(c3ccccc31)CCCC2,0.92,-1.6
Nc1nc(-c2ccc3c(c2)OCCO3)cs1,0.44,1.2&-0.15
S=C1NCN(Cc2cccs2)CN1,0.49,0.1
CCOC(=O)c1cccc(NC2c3ncccc3C(=O)N2c2ccc(C)cc2)c1 (centres undefined),-0.34,-0.05
N#Cc1cc(C#N)c(SCC(=O)NC2CCCCC2)nc1N,9,0.3
Clc1ccc(OCCSc2ncnc3ccccc23)cc1,-0.015,-0.15
Cc1c(C(=O)/C=C/N(C)C)nnn1-c1cccc(Cl)c1Cl,-2.6,0.1
C[N+](C)(C)c1nc(N2CCOCC2)nc(N(c2ccccc2)c2ccccc2)n1,0.29,x
COc1ccc(S(=O)(=O)Nc2cccc3cc(C(=O)O)[nH]c23)cc1,-0.14,x
COC(=O)CSc1nc(-c2ccccc2)cc(C(F)(F)F)n1,x,-0.2

# (list continues)
SMILES,Ba CapD inh,AID504770
Cc1cccc(CCNC(=O)[C@H](Cc2ccccc2)N2Cc3ccccc3C2=O)c1,-0.085,-0.7
CCc1cc(C(=O)OC)c(NC(=O)CN2CCN(c3ccccc3)CC2)s1,-1.6,1.5
COc1ccccc1C(=O)CSc1cccc[n+]1[O-],x,0.45
CCOC(=O)c1c(C)[nH]c(C(=O)CN2CCCCC2)c1C,x,1.6
O=c1[nH]c(CN(CCO)Cc2nc3sccc3c(=O)[nH]2)nc2sccc12,x,-0.4
COc1cccc(-c2nn(C)c3sc(C(=O)NCCc4ccc(OC)c(OC)c4)cc23)c1,-0.24,-0.1
Cc1ccc(-c2nnc(CCC(=O)NCc3ccccc3CN3CCCC3)o2)cc1,x,0
CCOc1ccccc1NC(=O)c1cc2c(CO)cnc(C)c2oc1=O,-0.2,0.6
COc1ccc(CCNC(=S)N2CCCC(C(F)(F)F)C2)cc1 (centres undefined),x,-0.5
COc1ccccc1C(=O)NNC(=O)c1cc(-c2ccccc2)nc2ccccc12,-0.025,x
O=C(CNC(c1ccccc1)c1ccc(Cl)cc1)N1CCNC1=O (centres undefined),x,2.2
CCOc1ccccc1NC(=O)C1CCCN1C(=O)c1cccs1 (centres undefined),x,-0.25
Nc1sc(=S)nc2ccccc12,x,-0.35
CCCCCCOc1ccc(S(C)(=O)=O)cc1NC(=O)C1CC1,0.25,x
O=S(=O)(c1ccc(Cl)c(Cl)c1)N1CCOCC1,0.12,0
N#Cc1cccc(NC(=O)c2coc(=O)c3ccccc23)c1,-0.98,0.75
COc1cc(/C=N/NC(=O)N/N=C/c2ccc(O)c(OC)c2)ccc1O,-2.1,x
CCOc1cccc2c1OC(c1ccc(C(=O)OC)cc1)N1N=C(c3ccc(C)o3)CC21 (centres undefined),-0.16,x
c1cnc(-c2cn[nH]c2)cn1,36,x
O=C(Nc1ccc(N2CCCCC2)cc1)c1ccncc1,-0.41,-0.3
C[C@@H](C(=O)N1CCN(c2ccccc2)CC1)N1C(=O)C2CC=CCC2C1=O (some centres undefined),x,-1.4
O=c1cc(CSc2n[nH]c(-c3ccccc3)n2)c2ccc(O)cc2o1,2.5,1.2
C=CCn1c2ccccc2c2n[nH]c(=S)nc21,-0.1,x
COc1ccc(Nc2cc(C(=O)NCCCN3CCOCC3)c3ccccc3n2)cc1OC,-0.65,-0.5
N#Cc1cc2c(nc1SCc1ccccc1F)C1CCN2CC1,0.55,0.3
